T cruzi repl: blocks replication of Trypanosoma cruzi. 300,000 tested, 1.4% active. AID 1885. inhibition, % (no concentration beside the values). T. cruzi beta-gal in NIH3T3, luminescence, 90 h;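 active = mean inhibition across valid replicates above about 55%, limit read from the data; inconclusive = mean below that limit but half or more replicates reach it; inactive = mean below it, under half of replicates reach it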;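 also: signal also drops with host cell toxicity which is not excluded here; 0% = plate median of DMSO wells and 100% = zero luminescence signal; higher percent means less beta-gal luminescence so fewer parasites; stock transfer was 50 nL into about 50 µL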
AF4-AF9 inh: blocks AF4 peptide binding to human AF9; P42568; AID 651704; 350,000 tested, 0.47% active; AlphaScreen, biotin-AF4 peptide binding to FLAG-AF9; inhibition, % at 10 µM;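 active = every replicate reaching a set inhibition limit, whatever the replicate mean, cut at about 25% in these data; inconclusive = mean inhibition reaches that limit but some replicates miss it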;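 also: 0% = plate neutral control median and 100% = total signal loss; the record names both 10 and 1 µM as test concentration; the first replicate is given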
Target sequence (P42568 whole entry, looked up): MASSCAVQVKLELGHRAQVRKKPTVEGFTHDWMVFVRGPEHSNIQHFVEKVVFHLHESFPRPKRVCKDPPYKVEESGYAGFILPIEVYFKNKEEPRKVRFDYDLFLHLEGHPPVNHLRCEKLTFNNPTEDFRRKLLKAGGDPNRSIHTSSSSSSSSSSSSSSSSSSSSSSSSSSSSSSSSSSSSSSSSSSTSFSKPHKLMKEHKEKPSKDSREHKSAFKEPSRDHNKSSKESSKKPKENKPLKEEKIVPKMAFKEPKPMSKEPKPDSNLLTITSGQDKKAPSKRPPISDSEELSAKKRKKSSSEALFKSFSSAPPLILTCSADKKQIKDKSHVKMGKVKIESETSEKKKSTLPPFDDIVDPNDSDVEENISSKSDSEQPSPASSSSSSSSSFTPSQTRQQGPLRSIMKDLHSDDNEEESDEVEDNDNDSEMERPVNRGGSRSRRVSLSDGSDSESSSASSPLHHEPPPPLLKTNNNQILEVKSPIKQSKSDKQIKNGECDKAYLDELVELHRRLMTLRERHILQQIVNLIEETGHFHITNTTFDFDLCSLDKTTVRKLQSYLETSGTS
Calb FLC: affects C. albicans growth with fluconazole; C. albicans CaCi-2 (fluconazole-resistant clinical isolate) + fluconazole, Alamar Blue growth, 48 h; growth inhibition, % (test concentration not listed); 300,000 tested, 0.57% active; AID 1979;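 active = most replicates above 75%; inconclusive = exactly half above 75%; inactive = most below 75%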;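 also: all wells also contain fluconazole at 8 µg/ml as a sub-toxic cotreatment; 0% = median of DMSO wells and 100% = median of geldanamycin control wells; wells of about 8 µL received 7.5 nL stock; the first replicate is given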
Vif A3G: inhibitors of Vif binding to APOBEC3G peptide, primary screen, biochemical, TR-FRET, GST-Vif 1-94, biotin-A3G peptide, dose response retest (AID 1117319). one-dose inhibition, %; IC50 in µM for titrated hits. 260,000 tested, 0.57% active. TR-FRET GST-Vif / biotin-A3G peptide binding; higher % means a stronger effect; test concentration not given here; strong numbers were not always called active;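 active = above the screen mean plus three standard deviations and confirmed in dose response; inconclusive = results disagree or hit not tested in dose response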;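 also: Vif residues 1-94 fused to GST binding biotinylated APOBEC3G peptide 110-148; 0% = full assay without inhibitor and 100% = GST in place of GST-Vif; retest series ran down from 100 µM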
LANA-H2B inh: blocks KSHV LANA binding to histone H2A/H2B | Q9QR71 | cell-free LANA-H2A/H2B peptide, fluorescence polarization | inhibition, % (no concentration beside the values) | 320,000 tested, 0.6% active | AID 2629; in the data active = inhibition mostly above about 10%, no sharp cut-off; inactive = mostly below about 6.7%;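 also: stock transfer was 7.5 nL into about 10 µL; 0% = median of vehicle wells and 100% = median of positive control wells; one replicate is shown; the record names a cut of 25% in any replicate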
A1 inh: inhibitors of the anti-apoptotic protein A1, read as caspase activation; caspase activation, % (concentration not given with the values); MEF A1-2A-BIM cells, Caspase-Glo 3/7 luminescence, 3 h; percent of clofoctol response, vehicle zero; 330,000 tested, 0.066% active;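 active = over half of replicate activation scores above 10%, or exactly half above 10 with the replicate mean above 10; inconclusive = replicate mean below 10 yet half the replicates above 10; inactive = over half of replicates below 10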;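 also: wells of about 30 µL received 50 nL stock; many hits fall short of the cut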
Beta cell apopt: blocks beta cell apoptosis; INS-1E cytokine-induced death, ATP luminescence, 48 h; percent of positive-control rescue, neutral wells zero; protection from apoptosis, % (concentration not given with the values); 300,000 tested, 0.8% active;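 active = all replicates at 75% or more, or half of them and the mean; inconclusive = half reach 75% but not the mean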;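 also: 0% = cytokine-treated negative control wells and 100% = positive control rescue; higher means more ATP so stronger rescue from cytokine killing; wells of about 40 µL received 100 nL stock; the first replicate is given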
RanGTP-Imp inh: inhibitors of RanGTP-importin-beta interaction, primary screen, biochemical, FRET, CFP-Ran, YFP-importin-beta, homogeneous; inhibition, % (concentration not given with the values); 300,000 tested, 1.1% active; cell-free CFP-Ran/YFP-importin-beta FRET ratio;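 active = most replicates above 15%; inconclusive = exactly half above 15%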;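 also: 0% = DMSO wells and 100% = Ran loaded with GDP instead of GTP; wells of about 40 µL received 100 nL stock; the first replicate is given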
Numbers without * were called inactive.

Results for CCSc1nc2sc3c(c2c2[n+]1CC(CBr)O2)CCCC3 (stereo not drawn) ?
T cruzi repl: -11.3; AF4-AF9 inh: 1.1; Calb FLC: 59.2; Vif A3G: 28.3%; LANA-H2B inh: -0.7; A1 inh: -0.3; Beta cell apopt: -8.2; RanGTP-Imp inh: -1.9

Results for CCN(CC)c1ccc(C(=O)OCC(=O)c2ccco2)cc1 ?
T cruzi repl: -3.3; Calb FLC: 5.8; Vif A3G: 13.8%; LANA-H2B inh: 0.5; A1 inh: 0.6; Beta cell apopt: -3.9; RanGTP-Imp inh: 3.0

How did CNc1cc(CSC)nc(SCc2ccc(Cl)cc2Cl)n1 do in these assays?
T cruzi repl: 11.6; AF4-AF9 inh: 1.9; Calb FLC: -36.2; Vif A3G: 0.0%; LANA-H2B inh: -7.9; A1 inh: 0.0; Beta cell apopt: -4.6; RanGTP-Imp inh: 0.4

How did CCN1CCN(C(=O)NC(c2ccc(C)c(F)c2)C(Cl)Cl)CC1 (stereo not drawn) do in these assays?
T cruzi repl: -0.4; AF4-AF9 inh: -0.2; Calb FLC: 11.5; Vif A3G: 11.8%; LANA-H2B inh: -3.0; A1 inh: -0.8; Beta cell apopt: -0.8; RanGTP-Imp inh: 9.0

How did Cc1ccc(-c2cc(C(=O)N/N=C/C=C/c3ccccc3)n[nH]2)o1 do in these assays?
T cruzi repl: -10.0; AF4-AF9 inh: -3.2; Calb FLC: -1.7; Vif A3G: 0.5%; LANA-H2B inh: 7.6; A1 inh: 0.4; Beta cell apopt: 36.1; RanGTP-Imp inh: -1.3

How did O=C1/C(=C/c2ccc(F)c(F)c2)CSc2sccc21 do in these assays?
T cruzi repl: -15.5; Calb FLC: 0.7; Vif A3G: -36.0%; LANA-H2B inh: -0.6; A1 inh: -0.6; Beta cell apopt: -7.5; RanGTP-Imp inh: 1.9

What do the screens show for `COc1ccc(C2=NN(C(=O)c3ccccc3)C(c3ccc(OC)c(OC)c3)C2)c(O)c1` (stereo not drawn)?
T cruzi repl: 13.4; AF4-AF9 inh: -2.1; Calb FLC: 1.0; Vif A3G: -6.1%; RanGTP-Imp inh: 0.1

What do the screens show for `Cc1cc(NS(=O)(=O)c2ccc(NC(=O)C(c3ccccc3)c3ccccc3)cc2)no1`?
T cruzi repl: -12.1; Calb FLC: 10.3; Vif A3G: 0.9%; LANA-H2B inh: 3.4; A1 inh: 0.0; RanGTP-Imp inh: -0.4

How did CCOC(=O)c1c(NC(=O)CCl)sc(CN(C)C)c1-c1ccccc1 do in these assays?
T cruzi repl: -0.6; AF4-AF9 inh: 6.4; Calb FLC: -27.9; Vif A3G: -9.8%; LANA-H2B inh: 5.4; A1 inh: 0.0; Beta cell apopt: -13.8; RanGTP-Imp inh: 1.4

What do the screens show for `CCOc1ccc(N(C)S(=O)(=O)c2ccc(C)c(C(=O)OCC(=O)c3c[nH]c4ccccc34)c2)cc1`?
T cruzi repl: 34.8; AF4-AF9 inh: -2.7; Calb FLC: -4.9; Vif A3G: 13.3%; LANA-H2B inh: 3.3; A1 inh: -0.2; Beta cell apopt: 75.0*; RanGTP-Imp inh: -1.9

How did O=C(Nc1nnc(C23CC4CC(CC(C4)C2)C3)s1)c1ccc(N2C(=O)CCC2=O)cc1 do in these assays?
T cruzi repl: -13.7; AF4-AF9 inh: -2.4; Calb FLC: 5.0; Vif A3G: 22.2%; LANA-H2B inh: 4.4; A1 inh: 0.7; Beta cell apopt: -5.0; RanGTP-Imp inh: -1.3

What do the screens show for `OCC1(Cc2ccccc2)CCN(Cc2cnn(-c3ccccc3F)c2)CC1`?
T cruzi repl: 37.1; AF4-AF9 inh: 4.1; Calb FLC: 5.1; Vif A3G: inconclusive; LANA-H2B inh: -3.7; A1 inh: -0.9; Beta cell apopt: -0.4; RanGTP-Imp inh: -0.5

How did CC1N(C(=O)N(C)C)CCN1S(=O)(=O)c1ccccc1 (stereo not drawn) do in these assays?
T cruzi repl: 3.2; AF4-AF9 inh: -6.2; Calb FLC: 0.7; LANA-H2B inh: -4.3; A1 inh: 0.0; RanGTP-Imp inh: -1.1

What do the screens show for `[O-]/C(=C(\C(=S)Nc1ccccc1F)[n+]1ccccc1)c1ccc(-c2ccccc2)cc1`?
T cruzi repl: -8.1; AF4-AF9 inh: 1.1; Calb FLC: -0.9; Vif A3G: 1.0%; LANA-H2B inh: -1.6; A1 inh: -4.5; Beta cell apopt: -4.5; RanGTP-Imp inh: 0.1

What do the screens show for `Cc1ccn(-c2ccc(NC(=O)c3cccs3)cc2)n1`?
T cruzi repl: -3.6; AF4-AF9 inh: -1.5; Calb FLC: -0.3; LANA-H2B inh: -0.9; A1 inh: -6.4; Beta cell apopt: 4.3; RanGTP-Imp inh: -1.3

How did Cc1noc(C)c1S(=O)(=O)N1CCC(C(=O)N2CCN(c3ccccc3Cl)CC2)CC1 do in these assays?
T cruzi repl: 0.4; Calb FLC: 2.0; Vif A3G: -1.9%; LANA-H2B inh: 2.1; A1 inh: 0.9; Beta cell apopt: -0.5; RanGTP-Imp inh: inconclusive

Results for CC(=O)c1ccc(N2CCN(C3CCC(C(C)(C)C)CC3)CC2)cc1 (stereo not drawn) ?
T cruzi repl: 45.2; AF4-AF9 inh: -2.1; Calb FLC: -3.6; Vif A3G: -13.5%; LANA-H2B inh: -1.5; A1 inh: 0.8; Beta cell apopt: 1.2; RanGTP-Imp inh: -1.3

What do the screens show for `Cc1ccccc1NC(=O)/C(C#N)=C/c1ccc(-c2ccc(Cl)c(C(=O)O)c2)o1`?
T cruzi repl: 6.4; AF4-AF9 inh: -1.4; Calb FLC: -3.4; LANA-H2B inh: -0.9; A1 inh: 0.2; RanGTP-Imp inh: inconclusive

Results for COc1cc(/C=N/n2c(-c3ccccc3)n[nH]c2=S)cc(OC)c1O ?
T cruzi repl: -7.8; AF4-AF9 inh: -9.5; Calb FLC: 18.9; Vif A3G: -2.5%; LANA-H2B inh: -4.1; A1 inh: 0.2; Beta cell apopt: 3.7; RanGTP-Imp inh: 2.2

How did CCOc1cc2c3c(c1)C(C)CC(C)(C)N3C(=O)C2=O (stereo not drawn) do in these assays?
T cruzi repl: 5.4; Calb FLC: 2.1; Vif A3G: 4.4%; LANA-H2B inh: -16.9; A1 inh: 0.8; Beta cell apopt: -7.5; RanGTP-Imp inh: 1.1

What do the screens show for `NS(=O)(=O)c1ccc(NC(=O)c2ccc(CSc3ccccc3)o2)cc1`?
T cruzi repl: 6.8; AF4-AF9 inh: -0.9; Calb FLC: 3.4; Vif A3G: -0.9%; LANA-H2B inh: -2.7; A1 inh: 0.5; Beta cell apopt: -5.9; RanGTP-Imp inh: -1.5

What do the screens show for `CCOc1ccc2c(c1)nc(SCC(=O)c1ccc(Br)s1)n2C`?
T cruzi repl: 9.2; Calb FLC: 44.2; Vif A3G: -18.3%; LANA-H2B inh: -1.2; A1 inh: -0.5; Beta cell apopt: 1.9; RanGTP-Imp inh: inconclusive

What do the screens show for `Cc1ccc(C)c(-n2c(SCC(=O)N3CCC(C(=O)O)CC3)nnc2-c2cccc(Cl)c2)c1`?
T cruzi repl: -10.9; AF4-AF9 inh: 0.6; Calb FLC: 5.1; Vif A3G: 7.2%; LANA-H2B inh: -0.6; A1 inh: 1.5; Beta cell apopt: -1.7; RanGTP-Imp inh: 1.1

Results for CCN(CC)CCCNc1nc2cc(OC)c(OC)cc2c2nc(-c3ccccc3)nn12 ?
T cruzi repl: 61.0*; Calb FLC: inconclusive; Vif A3G: 3.2%; LANA-H2B inh: -9.3; A1 inh: -0.4; Beta cell apopt: 52.5; RanGTP-Imp inh: 50.5*

How did CC1(C)CC(=O)C(C=NCCN2CCN(C3CC(=O)N(c4ccc(Cl)c(Cl)c4)C3=O)CC2)=C(O)C1 (stereo not drawn) do in these assays?
T cruzi repl: -10.0; AF4-AF9 inh: -8.0; Calb FLC: 0.0; LANA-H2B inh: -0.9; A1 inh: 0.2; Beta cell apopt: 1.8; RanGTP-Imp inh: -1.8

What do the screens show for `CCOC(=O)N1CCN(S(=O)(=O)c2c[nH]c(C(=O)OC)c2)CC1`?
T cruzi repl: -9.8; AF4-AF9 inh: -5.0; Calb FLC: 3.8; Vif A3G: -1.9%; LANA-H2B inh: -2.9; A1 inh: 0.3; Beta cell apopt: -3.0; RanGTP-Imp inh: -0.1

Results for CCN1C(=O)N[C@@H](c2ccccc2)[C@H](C(C)=O)[C@H]1C ?
T cruzi repl: -0.6; AF4-AF9 inh: -1.6; Calb FLC: 1.2; LANA-H2B inh: 4.0; A1 inh: 0.5; Beta cell apopt: -8.2; RanGTP-Imp inh: -1.8

Results for CCN(c1ccccc1)S(=O)(=O)c1ccc(C(=O)Nc2cccc(NC(C)=O)c2)cc1 ?
AF4-AF9 inh: 5.9; LANA-H2B inh: -3.5; A1 inh: 0.8; Beta cell apopt: 0.9

How did COCCn1c(SCC(=O)Nc2ccc(OC)c(S(N)(=O)=O)c2)nc2ccccc2c1=O do in these assays?
T cruzi repl: -3.8; AF4-AF9 inh: 7.2; Calb FLC: 2.2; LANA-H2B inh: -0.7; A1 inh: -0.9; Beta cell apopt: 0.7; RanGTP-Imp inh: 2.4

Results for NC(=O)COc1ccc(NC(=O)OCc2ccccc2)cc1 ?
T cruzi repl: -2.0; Calb FLC: -0.1; Vif A3G: -4.5%; LANA-H2B inh: 1.2; A1 inh: -0.2; Beta cell apopt: -2.2; RanGTP-Imp inh: -0.1

Results for C[C@]12C=CC(=O)C=C1CCC1C2CC[C@@]2(C)C1CCC21OCCO1 (stereo partly drawn) ?
AF4-AF9 inh: 3.4; Vif A3G: -5.0%; LANA-H2B inh: 2.3; A1 inh: -0.5; Beta cell apopt: -1.4

How did COc1cc(-c2ccc3oc(-c4cccc(C)c4)c(C#CC4(O)CCCCC4)c3c2)cc(OC)c1OC do in these assays?
AF4-AF9 inh: 5.0; LANA-H2B inh: -3.3; A1 inh: 1.6; Beta cell apopt: -0.8

Results for COCCCNC(=O)CC1C[C@H](C(=O)N2CCCCC2)[C@@]2(C)c3[nH]c4ccccc4c3CCN2C1=O (stereo partly drawn) ?
AF4-AF9 inh: -5.2; Vif A3G: -4.6%; LANA-H2B inh: -3.0; A1 inh: 0.0; Beta cell apopt: -4.9

Results for CCn1c(C)nc2cc(C(=O)NNS(=O)(=O)c3ccccc3F)ccc21 ?
T cruzi repl: -18.5; Calb FLC: -15.2; Vif A3G: 0.9%; LANA-H2B inh: -2.5; A1 inh: 1.4; Beta cell apopt: -5.5; RanGTP-Imp inh: 0.0

How did N#Cc1ccc(NCC(=O)N2CCN(S(=O)(=O)c3ccccc3)CC2)cc1 do in these assays?
AF4-AF9 inh: 4.4; LANA-H2B inh: -4.8; A1 inh: 0.5; Beta cell apopt: -2.8

Fetched by structure from above:
Results for C[C@]12C=CC(=O)C=C1CCC1C2CC[C@@]2(C)C1CCC21OCCO1 (stereo partly drawn) ?
AF4-AF9 inh: 3.4; Vif A3G: -5.0%; LANA-H2B inh: 2.3; A1 inh: -0.5; Beta cell apopt: -1.4

Results for CCn1c(C)nc2cc(C(=O)NNS(=O)(=O)c3ccccc3F)ccc21 ?
T cruzi repl: -18.5; Calb FLC: -15.2; Vif A3G: 0.9%; LANA-H2B inh: -2.5; A1 inh: 1.4; Beta cell apopt: -5.5; RanGTP-Imp inh: 0.0
